Source: PubChem BioAssay
TRPML1 ag – qHTS for Agonists of the Human Mucolipin Transient Receptor Potential 1 (TRPML1); activation, % (test concentration not listed); TRPML1-expressing cells, Ca2+ dye fluorescence, FDSS; host cell line not named in the record; reference of the full effect not given here; hit rate 0.12% among 410,000; Mucolipin-1 (Homo sapiens), Q9GZU1; in the data active = activation above about 50%; inconclusive = about 30% to 50%; inactive = below about 30%; also: 0% is about no effect; the text of the record puts the active cut at 80%
Target sequence (Q9GZU1 whole entry, looked up): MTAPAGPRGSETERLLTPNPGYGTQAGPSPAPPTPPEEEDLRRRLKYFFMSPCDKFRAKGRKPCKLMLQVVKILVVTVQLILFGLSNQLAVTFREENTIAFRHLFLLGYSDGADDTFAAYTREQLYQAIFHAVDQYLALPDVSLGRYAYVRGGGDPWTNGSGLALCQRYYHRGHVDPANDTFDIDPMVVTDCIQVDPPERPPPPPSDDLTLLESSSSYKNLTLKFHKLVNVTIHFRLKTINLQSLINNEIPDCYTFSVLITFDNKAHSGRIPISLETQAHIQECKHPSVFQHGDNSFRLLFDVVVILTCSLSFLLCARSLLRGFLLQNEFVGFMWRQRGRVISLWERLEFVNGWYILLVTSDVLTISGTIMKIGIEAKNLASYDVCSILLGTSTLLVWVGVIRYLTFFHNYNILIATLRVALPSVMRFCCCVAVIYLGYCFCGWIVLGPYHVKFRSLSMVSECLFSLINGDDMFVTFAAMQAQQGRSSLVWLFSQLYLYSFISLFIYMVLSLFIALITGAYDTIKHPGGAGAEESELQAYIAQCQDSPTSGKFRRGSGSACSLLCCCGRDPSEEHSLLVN
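Calcium fluorescence on an FDSS kinetic reader gave the read-out. Tet-induced TRPML1-DL cells were plated overnight, dye-loaded (Ca8 with quencher, 45-90 min, room temperature, dark), then read 110 s after compound addition, and again 110 s after 4uM final 54-4 (EC80).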
Six1-Eya2 blk – qHTS Assay for Inhibitors of the Six1/Eya2 Interaction. Homeobox protein SIX1 (Homo sapiens) + Protein phosphatase EYA2 (Homo sapiens), …. activity change, % (test concentration not listed). AID 651725, 2012. AlphaScreen GST-Six1/His-Eya2 binding, biochemical; active compounds read low; control for the full effect not named in the record. hit rate 0.56% among 360,000; in the data active = activity change below about -65%; inconclusive = about -30% to -65%; inactive = above about -30%; also: % is scaled to controls: 0 for no effect and ±100 for the full control effect
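AlphaScreen with GST-Six1 and His-Eya2 (5X mix: 250 nM and 500 nM), glutathione donor and nickel acceptor beads; buffer 50 mM Tris pH 8.0, 300 mM NaCl, 1 mM TCEP; 1 h at 37 C in the dark.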
CtBP-E1A blk – qHTS Assay for Inhibitors of the CtBP/E1A Interaction; AlphaScreen GST-E1A/His-CtBP binding, 1536-well; active compounds read low; control for the full effect not named in the record; activity change, % (test concentration not listed); hit rate 0.49% among 340,000; AID 651724, 2012; in the data active means activity change below about -65%; inconclusive means about -30% to -65%; inactive means above about -30%; also: % is scaled to controls: 0 for no effect and ±100 for the full control effect
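Homogeneous bead-based format: GST-tagged E1A captured on glutathione donor beads, His-tagged CtBP on nickel acceptor beads; compounds precede bead addition by 2 h at 37 °C.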
D2 ag – Beta-Arrestin HTS for Positive Allosteric Modulators of the Human D2 Dopamine Receptor: Agonists; DiscoveRx PathHunter D2 beta-arrestin, luminescence, 90 min; 100% = 57 uM dopamine signal; AID 624465, 2012; hit rate 0.084% among 360,000; activation, % (test concentration not listed); D(2) dopamine receptor (Homo sapiens), P14416; in the data active = activation above about 40%; inconclusive = about 15% to 40%; inactive = below about 15%; also: compound concentration not given in the record; the text of the record calls up to 30% inactive
Target sequence (P14416 whole entry, looked up): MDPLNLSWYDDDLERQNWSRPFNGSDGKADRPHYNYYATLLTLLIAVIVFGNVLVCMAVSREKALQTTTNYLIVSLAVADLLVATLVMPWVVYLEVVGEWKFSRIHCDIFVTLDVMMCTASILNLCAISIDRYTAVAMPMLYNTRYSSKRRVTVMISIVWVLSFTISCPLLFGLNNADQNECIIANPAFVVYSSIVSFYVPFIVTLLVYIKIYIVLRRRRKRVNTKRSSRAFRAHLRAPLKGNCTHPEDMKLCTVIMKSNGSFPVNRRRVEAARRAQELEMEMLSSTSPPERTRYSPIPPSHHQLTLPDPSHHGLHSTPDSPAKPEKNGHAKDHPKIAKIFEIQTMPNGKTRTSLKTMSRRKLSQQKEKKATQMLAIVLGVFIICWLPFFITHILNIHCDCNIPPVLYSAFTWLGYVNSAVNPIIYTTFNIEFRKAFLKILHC
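DiscoveRx PathHunter D2 beta-arrestin cells (2,100/well) attached overnight, then compound-stimulated 90 min at 37 C in HBSS/10 mM HEPES/0.1% Tween-20 buffer; beta-galactosidase complementation read by luminescence after 1 h at ambient temperature. Dopamine 57 uM final (EC100) as control.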
PINK1 modulator – A Quantitative High throughput Screen to Identify Chemical Modulators of PINK1 Expression; PINK1 immunofluorescence, high-content cytometry, 24 h; Potency, µM (top dose mostly 76.6 µM), without a hit: at the highest dose activation (PINK1 increase), hits mostly activators; hit rate 0.2% among 410,000; active = well fitted activation curve with a large enough effect; inconclusive = small, poorly fitted or top-dose-only effect; inactive = flat fitted curve, though single readings scatter; cell line not stated here;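 also: potency is read from the fitted curve at half-maximal effect; % of control where 0% means no effect; nearly all actives have a fitted effect of over 65% in size; a mitochondrial uncoupler was the plate control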
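A stable cell line was treated with compounds at 5 concentrations for 24 hours, with CCCP as control. PINK1 levels and mitochondrial localization were measured by immunofluorescence with mitochondrial, cell and nuclear markers after fixation, read by laser-scanning cytometry.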
TRPML1 inh – qHTS for Inhibitors of the Human Mucolipin Transient Receptor Potential 1 (TRPML1); TRPML1-inducible cells, Ca2+ dye fluorescence, FDSS; active compounds read low; inhibition of EC80 agonist-evoked calcium signal; hit rate 0.02% among 390,000; Mucolipin-1 (Homo sapiens), Q9GZU1; activity change, negative = inhibition, % (no concentration beside the values); AID 624415, 2012; in the data active means activity change below about -50%; inconclusive means about -30% to -50%; inactive means above about -30%;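 also: stimulus is agonist 54-4 at its EC80 concentration; % is scaled to controls: 0 for no effect and ±100 for the full control effect; compound concentration not given in the record; the text of the record puts the active cut at -80%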
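TRPML1-DL cells, Tet-induced overnight (~16 h, 37 °C) at 1,500 cells/well, were loaded with Ca8 no-wash dye plus quencher for 45-90 min at room temperature. Compounds were pinned during FDSS kinetic reading; agonist 54-4 at EC80 (4 uM final) then added.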
Active calls of the source: *; ? = inconclusive; / = no result given; & = joins results of further samples; [ ] = another dose, or the depositor's remark.

The line under a structure holds: Six1-Eya2 blk	D2 ag	TRPML1 inh	PINK1 modulator	CtBP-E1A blk	TRPML1 ag
O=C1c2cccc3cccc(c23)C(=O)N1c1ccc(O)cc1
 : -9	3.1	40	3.7%	/	-0.9
O=C(O)c1ccccc1-n1cccc1C(=O)O
 : -1	-2.1	15	?	2	0.0
O=C(NCc1ccccc1)N1CCN(c2ccccc2F)CC1
 : -2	-2.3	-13	12%	-1	-0.1
CN(C)c1cccc(C(=O)OCC(=O)NCc2ccco2)c1
 : -8	-5.7	-6	1.4%	0	0.4
CN(CC(=O)Nc1ccc(S(=O)(=O)N2CCOCC2)cc1)Cc1ccc(F)cc1
 : -1	-5.8	13	2.1%	15	-0.6
CCOC(=O)c1c(-c2ccc(C)cc2)csc1NC(=O)c1nc(SC(C)C)ncc1Cl
 : /	/	-17	0.1%	/	12
COc1ccc(C(=O)NCC(=O)OCC(=O)Nc2ccc(C)c(S(=O)(=O)N(C)C)c2)cc1OC
 : 9	-0.6	31	0.8%	/	2.4
COc1ccc([N+](=O)[O-])cc1N(CC(O)CN(C)C)S(=O)(=O)c1ccccc1 (stereo not drawn)
 : 1	-2.9	20	-0.6%	-2	-0.3
O=C(COc1cccc2cccnc12)NCC(F)(F)F
 : -15	2.5	-5	-0.9%	?	1.2
COc1ccc(NC(=S)Nc2ccc(F)cc2)c(OC)c1
 : 1	-1.5	0	-0.5%	-3	-0.7
CN(CC(=O)Nc1ccccc1Br)C(=O)CN1CCN(c2ccccc2Cl)CC1
 : 3	-2.6	-14	-2.1%	-12	-0.3
O=C(Cc1ccc(S(=O)(=O)N2CCOCC2)s1)Nc1cc(C(F)(F)F)ccc1N1CCCC1
 : -10	-0.3	10	2.8%	-6	-0.5
CCCCNC(=O)c1onc(CSc2cccc(C)c2)c1C(=O)O
 : -24	-3.1	-16	0.3%	0	-0.6
O=C(NCc1cccnc1)NC1CCCN1S(=O)(=O)c1ccc(Cl)cc1 (stereo not drawn)
 : 1	-0.2	45	-0.6%	0	0.0
Cc1ccccc1C(=O)N(Cc1cccs1)C1CCS(=O)(=O)C1 (stereo not drawn)
 : -1	-1.7	2	1.8%	13	-0.7
CCOc1ccc(-c2c(C(=O)N/N=C/c3cccnc3)nnn2-c2nonc2N)cc1
 : -6	1.0	2	3.1%	/	0.9
COCCCn1c(=N)c(C(=O)NCc2ccc3c(c2)OCO3)cc2c(=O)n3cccc(C)c3nc21
 : 14	1.0	/	5.1%	17	/
O=C(O)CCN(Cc1ccccc1)S(=O)(=O)c1ccccc1Cl
 : 6	2.3	-11	2.7%	4	0.1
O=C(COC(=O)c1nc(Cl)ccc1Cl)NCc1ccc(Cl)cc1Cl
 : 2	1.5	9	0.7%	1	4.5
COC(=O)C1CCN(S(=O)(=O)Cc2ccccc2Cl)CC1
 : -1	-8.1	25	0.7%	-7	0.7
O=C(CSc1nnc(-c2ccc(O)cc2)n1Cc1ccco1)c1ccccc1
 : -16	1.0	32	-0.1%	-10	0.9
COC(=O)c1ccc(-c2nc(CN3CCN(C(=O)c4ccco4)CC3)c(C)o2)cc1
 : 2	-0.2	-21	-0.4%	-10	0.0
COc1ccc(C(C)=O)cc1COC(=O)c1cnc(C)cn1
 : -3	-1.8	-6	-0.7%	0	-1.1
CCOc1ccccc1Nc1nnc(SCC(=O)Nc2cc(C)on2)s1
 : 0	2.6	3	9.8%[38.3 µM]	-2	2.8
CCCc1nc(SCC(=O)Nc2nnc(CC)s2)c2c(C)c(C)sc2n1
 : 1	-0.7	-8	1.1%[38.3 µM]	4	0.7
CCOCCCN(C)C1CCN(C(=O)c2oc3ccccc3c2NC(=O)c2ccc([N+](=O)[O-])cc2)CC1
 : -5	-1.4	30	-0.7%	-3	-0.3
CCCCOc1ccc(C(=O)N2CCC(c3nc4ccccc4o3)CC2)cc1
 : /	/	6	0.4%	/	5.4
Cc1cccc(CCNC(=O)Cn2ncc3c(=O)oc4ccccc4c32)c1
 : /	/	5	2.0%	/	-0.7
COC(=O)Cc1ccc(OC(=O)c2cccc(S(=O)(=O)N3CCN(C)CC3)c2)cc1
 : -5	-1.3	10	-2.2%	6	-0.3
O=C(NCCCn1ccnc1)/C(=C\c1cccnc1)NC(=O)c1ccco1
 : -4	-3.6	-17	0.7%	0	0.0
CC(C)C(=O)NCCc1nc(-c2ccccc2Cl)no1
 : 0	0.8	25	0.0%	0	0.2
CC(C)/C=C1\CC/C(=C\c2ccc(N(C)C)cc2)C1=O
 : 8	-3.8	-24	17%	-1	64*
COc1ccc(N2CCN(C(=O)CSc3nnnn3C3CC3)CC2)cc1
 : -4	-0.7	8	-1.7%	2	-0.3
COc1ccccc1C(CCN(Cc1ccccc1)C(C)=O)c1ccco1 (stereo not drawn)
 : -27	-0.8	9	0.6%	-11	0.9
CC(=O)Nc1cc(C(=O)OCC(=O)c2ccc(C)cc2)ccc1C
 : 5	-3.7	-1	5.2%	6	-0.5
N#Cc1cc(Cl)c(NCC2CCCO2)cc1C#N (stereo not drawn)
 : 4	-1.6	-2	0.1%	10	-0.8
O=C(Nc1nc(-c2cccc([N+](=O)[O-])c2)cs1)c1cccc([N+](=O)[O-])c1C(=O)O
 : 7	-3.1	1	2.0%	-18	-0.5
O=C(O)CSc1c2c(nc3cc(C(=O)Nc4ccc(F)c(Cl)c4)ccc13)CCCC2
 : 6	-1.0	0	0.0%	/	0.5
Cc1ccc(S(=O)(=O)N2CCCCC2)cc1NC(=O)Cn1c(=O)cnc2ccccc21
 : 6	-0.4	9	2.2%	-6	2.6
CNC(=S)N(CCc1c(C)[nH]c2ccc(Cl)cc12)Cc1cccnc1
 : -6	-2.4	-1	0.3%	-10	0.0
O=C(CNC(=O)c1ccc2ccccc2c1)NCc1ccc(F)cc1
 : 9	-2.2	-8	5.7%	-2	0.2
COc1ccc(N2CCN(C(=O)C3CCN(S(=O)(=O)c4cn(C)cn4)CC3)CC2)cc1
 : /	/	49	-0.5%	/	0.4
CC(C)(C)c1cc(-c2ccccc2)n[nH]1
 : 0	-7.6	/	-0.4%	0	/
CC(C)NC(=O)N(C)C[C@H]1Oc2ccc(NS(=O)(=O)c3ccc(F)cc3)cc2C(=O)N([C@H](C)CO)C[C@@H]1C
 : 5	1.3	19	-1.5%	6	-0.6
Cc1ccc(C(=O)O)cc1NC(=O)CN1C(=O)C2C3c4ccccc4C(Br)(c4ccccc43)C2C1=O (stereo not drawn)
 : 1	-0.9	1	1.3%	-12	-0.6
CCOc1cc(NC(=O)c2ccco2)c(OCC)cc1NC(=O)Cc1ccc(OC)c(OC)c1
 : -4	-1.7	-3	?	-3	0.6
CC(C)c1ccc(C2/C(=C(\O)c3ccc4c(c3)OCCO4)C(=O)C(=O)N2CCN2CCOCC2)cc1 (stereo not drawn)
 : 6	-4.5	-16	-1.6%	-3	0.0
CCOC(=O)COc1nc2c(c(-c3ccco3)c1C#N)CCc1ccccc1-2
 : 30	-4.2	12	1.6%	23	0.9
O=c1cc(Nc2ccc3c(c2)OCO3)[nH]c(=O)n1-c1ccc(Br)cc1
 : -11	2.7	2	8.9%[38.3 µM]	-16	0.2
Cc1cnc(NC(=O)C2CC(=O)N(c3cccc(Cl)c3)C2)s1 (stereo not drawn)
 : 1	3.0	-4	-0.1%	7	0.0
O=C(CN1CCCCC1)NC(=O)NC1CCCC1
 : 5	-2.9	8	0.4%	/	0.2
CCOc1ccc(Cn2nnc(C(=O)NCCc3ccc(Cl)cc3)c2N)cc1
 : 9	-2.7	-8	3.6%	7	1.3
CCN(CC)CCNC(=O)c1cn(CCOC)c(=O)c2c1c1ccccc1n2C
 : -2	-0.7	-2&-2	1.0%&-0.4%	/	-0.3&-0.5
CCOC(=O)C1=C(C)N(C[C@@H]2CC[C@@H](Cc3ccc4cc(OC)ccc4c3)O2)C(=O)NC1c1ccccc1 (stereo partly drawn)
 : -14	1.0	24	2.9%	-13	1.5
COc1ccc(NC(=S)NCc2cccs2)cc1OC
 : 4	-0.1	20	1.0%	/	1.1
CCCCNC(=O)C1C2C=CC(C2)C1C(=O)O (stereo not drawn)
 : 16	-3.1	-8	1.2%	3	-0.3
O=C1CSC(=Nc2ccccc2Cl)N1
 : -2	-1.0	14	4.1%	2	-0.1
Cc1ccc(-n2nnnc2SCC(=O)c2c(N)n(C3CC3)c(=O)[nH]c2=O)c(C)c1
 : -3	0.0	2	-0.7%	/	-1.6
O=C1Nc2ccccc2C(=O)N2[C@H](c3ccc(F)cc3)[C@@H]3C(=O)N(Cc4ccccc4)C(=O)[C@@H]3[C@H]12
 : 8	-0.9	-7	-0.4%	-18	2.3
O=C(CCCN1C(=O)/C(=C/c2cccc(Br)c2)SC1=S)N1CCOCC1
 : -20	-1.3	2	5.8%	-8	0.9

(more compounds)
The line under a structure holds: Six1-Eya2 blk	D2 ag	TRPML1 inh	PINK1 modulator	CtBP-E1A blk	TRPML1 ag
Cc1ccc2c(cnn2C(=O)CCC(=O)NC2CCCCC2)c1
 : 4	-0.4	15	2.4%	4	-0.2
COCCNC(=S)N/N=C(\C)c1ccc(Cl)c(Cl)c1Cl
 : -5	-1.7	-5	4.2%	0	1.3
O=c1cc(-c2ccc(O)c(O)c2)oc2cc(O[C@@H]3O[C@H](CO)[C@@H](O)[C@H](O)[C@H]3O)cc(O)c12
 : ?	-5.5	-23	-0.2%	-10	-0.4
CC(/C=C/C=C/c1ccccc1)=N/NC(=O)CNc1ccccc1C
 : 2	-3.4	-5	13%	11	-0.2
COc1ccc(/C=C2/SC(=S)N(CCC(=O)Nc3cccnc3)C2=O)cc1OC
 : -1	0.5	-7	0.3%	2	-0.7
Cc1cc(C)nc(Nc2ccc(O)cc2)n1
 : 4	4.4	-22	0.4%	5	0.9
CCc1ccc(NC(=O)c2onc(C)c2Cl)cc1
 : 13	-4.0	-4	0.3%	-22	2.0
CCOC(=O)N1CCN(C(=O)CSc2ccc3nnc(-c4cccnc4)n3n2)CC1
 : 3	-3.3	-13	0.1%	0	0.5
COc1ccccc1C(O)c1nccn1C (stereo not drawn)
 : -1	-0.5	4	-0.3%&1.7%	6	-0.3&-0.2
C=C1CN(Cc2ccccc2)S(=O)(=O)c2ccccc21
 : 8	-2.5	21&5&-2	0.4%	4	4.5&2.1&1.4
O=C(NC1CCCC1)c1csc2c1CCCC2
 : -8	-4.2	-8	4.7%[38.3 µM]	0	0.2
